Mtb bLac sens = beta-lactam sensitization of Mtb H37Rv; M. tuberculosis H37Rv growth with meropenem, percent inhibition; hits of this screen are not shown here; inhibition, % at 25 µM; 330,000 tested, 0.27% active;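 active = about 74% or more and at least 40 points above the plate without the antibiotic, then above 30% in a dose series; inconclusive = first-round hits that could not be retested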;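 note: growth measured after seven days incubation then overnight dye step; 0% = bacteria only wells and 100% = bacteria with antibiotic; twin plates without the antibiotic show which effects depend on it; some results filed as inactive read as strong as hits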
Mtb growth = M. tuberculosis H37Rv growth inhibitors, H37Rv strain (AID 1626) | M. tuberculosis H37Rv growth inhibition; higher % means a stronger effect | one-dose inhibition, % at 10 µM; IC50 in µM for titrated hits | 220,000 tested, 0.95% active;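 active = confirmed in a dose series; inconclusive = inhibition above 80% but not taken into the dose series; inactive = below 80% or under 30% at every dose of the series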;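 note: bacteria incubated seven days before Alamar blue readout; 0% = bacteria only wells and 100% = bacteria with antibiotic wells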
Arbovirus inh = arbovirus infection inhibition; inhibition, % at 10 µM; 200,000 tested, 0.37% active; arbovirus infection cell-based antiviral screen; AID 1251;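 active = inhibition from about 30%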;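 note: bluetongue infection of BSR cells; cell survival read as ATP light after 72 h; 0% = infected wells without compound and 100% = uninfected wells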
YopH PTP inh = YopH (Yersinia) phosphatase inhibition; fluorescence Ex485/Em525; inhibition, %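 (about 10 µM by stock and volumes)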; 140,000 tested, 0.16% active; AID 898;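 active = inhibition of 50% or more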;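 note: controls were vehicle for no effect and minimum signal wells for full effect; inactives centre near -20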
RecA intein inh = blocks M. tuberculosis RecA intein splicing; P9WHJ3; cell-free RecA intein splicing, fluorescence; inhibition, %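 (about 9 µM by stock and volumes)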; 290,000 tested, 0.75% active; AID 2221; in the data active = inhibition above about 30%; inconclusive = no clear call, values can overlap the other calls;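 note: 0% = vehicle wells and 100% = reference inhibitor control wells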
Target sequence (P9WHJ3 whole entry, looked up): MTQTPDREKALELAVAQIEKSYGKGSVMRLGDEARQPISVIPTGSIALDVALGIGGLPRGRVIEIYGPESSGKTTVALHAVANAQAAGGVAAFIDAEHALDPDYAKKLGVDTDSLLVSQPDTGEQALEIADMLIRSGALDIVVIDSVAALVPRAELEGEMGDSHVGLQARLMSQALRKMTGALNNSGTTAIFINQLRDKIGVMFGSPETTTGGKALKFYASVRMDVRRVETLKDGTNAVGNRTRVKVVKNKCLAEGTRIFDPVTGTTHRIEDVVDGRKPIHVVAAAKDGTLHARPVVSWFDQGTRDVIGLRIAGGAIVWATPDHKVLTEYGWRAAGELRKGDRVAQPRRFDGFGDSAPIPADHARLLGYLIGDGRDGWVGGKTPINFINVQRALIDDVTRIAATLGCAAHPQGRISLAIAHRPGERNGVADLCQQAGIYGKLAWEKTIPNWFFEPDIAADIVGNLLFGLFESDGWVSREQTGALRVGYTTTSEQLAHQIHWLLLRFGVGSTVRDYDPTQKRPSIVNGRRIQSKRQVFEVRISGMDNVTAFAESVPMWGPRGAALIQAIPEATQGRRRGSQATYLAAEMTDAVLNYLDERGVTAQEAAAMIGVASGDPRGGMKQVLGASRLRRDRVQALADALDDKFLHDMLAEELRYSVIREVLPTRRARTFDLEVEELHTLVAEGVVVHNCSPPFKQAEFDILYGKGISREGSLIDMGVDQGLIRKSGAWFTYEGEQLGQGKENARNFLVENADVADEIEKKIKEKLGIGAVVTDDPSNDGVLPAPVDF
Arbovirus inh repeat = second read-out of Arbovirus inh, no call of its own (marks repeat the call); inhibition, %; measured here: 10K subset replicate screen; many hits read low in the repeat;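 first of two repeat runs on a subset; 0% = infected and 100% = uninfected wells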
An asterisk follows results filed as active; ? = inconclusive; . = not tested or not shown. This is a subset; count on the stated rates, not on these rows.

SMILES	Mtb bLac sens	Mtb growth	Arbovirus inh	YopH PTP inh	RecA intein inh	others
CCOC(=O)Cn1c(-c2nonc2NC(=O)c2ccccc2F)nc2ccccc21	7	-3%	6	-20	1.7
O=C(Cn1c(N2CCN(c3ccccc3)CC2)nc2ccccc21)c1ccccc1	-3	.	13	-23	-1.0	Arbovirus inh repeat=-1
O/C(=C\Sc1nnc(Cc2ccccc2)o1)c1ccc(F)cc1	0	-3%	-10	3	3.0
O=C(CN(C(=O)c1csnn1)c1cccc2ccccc12)NC1CCCC1	0	-3%	-8	.	-0.3
O=C1c2nc3cc(-c4ccccc4)[nH]n3c(=O)c2CN1Cc1ccccc1	-7	-4%	.	.	-3.6
CCOc1cc(C)c(-c2onc(C(F)(F)F)c2-c2csc(C)n2)c(O)c1	4	4%	-24	-81	0.1
COc1ccccc1NC(=O)CSc1nnc(CC(=O)Nc2ccccc2)n1C	4	-12%	-2	36	1.0
CSc1ncc(C(=O)Nc2ccccc2)cn1	73	.	.	.	1.1
O=C(C1COc2ccccc2O1)N1CCCC1 (stereo not given)	1	-20%	1	-66	2.7	Arbovirus inh repeat=2
Cc1ccc(-c2csc(NC(=O)/C=C/c3cccs3)n2)cc1C	2	52%	-3	-9	-2.3
Cc1ccc(C(=O)NCCC(=O)NCc2ccco2)cc1	-6	.	.	.	-0.5
CC(C)CC(=O)NC(=S)N1CCN(c2ccc([N+](=O)[O-])cc2Cl)CC1	0	-2%	4	-27	.
CC(C)NC(=O)C1CCN(C(=O)N(C)C)CC1	2	-1%	9	-33	-1.1
CCOc1c(C#N)c(C#N)c2nc(C)cc(C)n12	1	4%	-4	-6	-3.9
NCCCC[C@@H]1NC(=O)c2cc([N+](=O)[O-])cc(I)c2SC[C@@H](C(N)=O)NC(=O)[C@H](Cc2ccc(O)cc2)NC1=O	90	2%	-3	16	3.1
COc1ccc(-n2nnnc2CNC(=O)c2ccc3ccccc3c2)cc1	-11	.	.	.	-1.3
CCN(CC)S(=O)(=O)c1ccc(C(=O)NCCOC(=O)c2ccc(F)cc2F)cc1	-11	.	.	.	-0.6
CCC(C)/C(C)=N/NC(=O)c1cn(-c2ccccc2)nc1-c1ccccc1 (stereo not given)	8	1%	-14	-13	0.8
Cc1ccc(NC(=O)CN(C)C(=O)CSc2nnc(C(F)(F)F)n2C)cc1	-6	-7%	5	.	5.2
COc1ccc(/C=N/n2c(-c3ccco3)nc3ccccc3c2=O)cc1	-1	-5%	-11	-21	-2.1
CCCc1nc2c(o1)CC(CC(C)SCC)CC2=O (stereo not given)	-3	-4%	5	-14	-2.9	Arbovirus inh repeat=-1
O=C(c1ccc([N+](=O)[O-])s1)N1CCN(c2ccccn2)CC1	100	.	.	.	-3.1
COc1ccc(-n2nc(C(=O)NCC(=O)N(C)Cc3ccccc3)c3ccccc3c2=O)cc1OC	5	.	.	.	1.4
Cc1cc(C)c2ccc3c(C)c(C)nc3c2[nH]1	64	5%	-12	.	-41
O=C(COC(=O)[C@@H]1CCCN1C(=O)c1cccs1)NCCc1ccccc1	4	-4%	-1	1	1.5

Gathered by group, the compounds so far with sulfur
SMILES	Mtb bLac sens	Mtb growth	Arbovirus inh	YopH PTP inh	RecA intein inh	others
O/C(=C\Sc1nnc(Cc2ccccc2)o1)c1ccc(F)cc1	0	-3%	-10	3	3.0
O=C(CN(C(=O)c1csnn1)c1cccc2ccccc12)NC1CCCC1	0	-3%	-8	.	-0.3
CCOc1cc(C)c(-c2onc(C(F)(F)F)c2-c2csc(C)n2)c(O)c1	4	4%	-24	-81	0.1
COc1ccccc1NC(=O)CSc1nnc(CC(=O)Nc2ccccc2)n1C	4	-12%	-2	36	1.0
CSc1ncc(C(=O)Nc2ccccc2)cn1	73	.	.	.	1.1
Cc1ccc(-c2csc(NC(=O)/C=C/c3cccs3)n2)cc1C	2	52%	-3	-9	-2.3
CC(C)CC(=O)NC(=S)N1CCN(c2ccc([N+](=O)[O-])cc2Cl)CC1	0	-2%	4	-27	.
NCCCC[C@@H]1NC(=O)c2cc([N+](=O)[O-])cc(I)c2SC[C@@H](C(N)=O)NC(=O)[C@H](Cc2ccc(O)cc2)NC1=O	90	2%	-3	16	3.1
CCN(CC)S(=O)(=O)c1ccc(C(=O)NCCOC(=O)c2ccc(F)cc2F)cc1	-11	.	.	.	-0.6
Cc1ccc(NC(=O)CN(C)C(=O)CSc2nnc(C(F)(F)F)n2C)cc1	-6	-7%	5	.	5.2
CCCc1nc2c(o1)CC(CC(C)SCC)CC2=O (stereo not given)	-3	-4%	5	-14	-2.9	Arbovirus inh repeat=-1
O=C(c1ccc([N+](=O)[O-])s1)N1CCN(c2ccccn2)CC1	100	.	.	.	-3.1
O=C(COC(=O)[C@@H]1CCCN1C(=O)c1cccs1)NCCc1ccccc1	4	-4%	-1	1	1.5

(next part)
SMILES	Mtb bLac sens	Mtb growth	Arbovirus inh	YopH PTP inh	RecA intein inh	others
Nc1ccccc1NC1=CC(=O)CC(c2ccccc2)C1 (stereo not given)	4	-7%	3	.	-0.3
Cn1nc(C(F)(F)F)c(-c2ccc(Br)cc2)c1NC(=O)C1CCC1C(=O)O (stereo not given)	5	-3%	.	.	1.3
Cc1ccc(NC(=O)c2ccc(CNc3c(N4CCOCC4)c(=O)c3=O)cc2)cc1	-3	.	-8	-40	0.0
Cc1cc(C(C)(C)C)ccc1OCCn1ccnc1	85	-6%	-15	-10	5.0
CC(C)C(=O)Nc1ccc2c(c1)nc(CCN1CCN(c3ccccn3)CC1)n2C	-6	.	.	.	-1.8
CSCCC(NC(N)=O)C(=O)NCc1ccc(Cl)cc1 (stereo not given)	?	3%	4	-22	-8.8
O=C(NCc1cc2ccccc2[nH]1)C1CCC(=O)N(CCCN2CCCC2=O)C1 (stereo not given)	-7	.	.	.	2.4
COc1ccc(NC(=O)CC(=O)Nc2ccc(OC)cc2OC)c(OC)c1	-11	-2%	8	8	1.7
CCOC(=O)c1sc(NC(=O)COC(=O)CNC(=O)c2ccco2)c(C(=O)OCC)c1C	-5	-6%	-3	-21	2.5
O=C(Nc1ccncc1)c1cccc(S(=O)(=O)N2CCN(c3ccc(F)cc3)CC2)c1	25	.	.	.	5.6
CC(=O)c1cccc(NC(=S)N2CCN(S(=O)(=O)c3ccccc3)CC2)c1	-4	.	.	.	-0.8
O=C(CN1C(=O)CC(c2ccccc2)=Nc2ccccc21)NCc1ccccc1	1	1%	1	-30	0.5
Cc1cccc(NC(=O)c2cnn(-c3ccc(F)cc3)c2C2CCNCC2)c1C	-5	-6%	13	.	2.1
O=C(O)CC1CCCC(c2ccccc2)C1=O (stereo not given)	8	-4%	1	7	-1.3
COc1ccc(CC(=O)NCc2nnc(SCC(=O)Nc3ccc(OC)cc3)n2C)cc1	-1	2%	-3	.	1.4
Cc1cc2cc(C)c3nnc(SCC(=O)NCc4ccc5c(c4)OCO5)n3c2cc1C	-10	5%	-5	-29	-3.1
COc1ccc(OC)c(NC(=O)CCc2nnc3ccc(N4CCC(C)CC4)nn23)c1	0	.	.	.	1.5
O=C(NC(CO)Cc1ccccc1)c1ccccc1 (stereo not given)	1	-6%	4	-26	-1.7
COc1cc(OC)cc(C(=O)OCC(=O)Nc2ccc(F)cc2F)c1	13	4%	24	.	2.8
CCOc1ccc(CCNC(=O)CCNS(=O)(=O)c2ccc3c(c2)CCN3C(C)=O)cc1OCC	-1	.	.	.	-3.7
Cc1cc(C)c(C#N)c(SCc2nc3ccccc3[nH]2)n1	-2	10%	-2	-25	-31
C=C(Cl)COc1ccc2c(CCCC)cc(=O)oc2c1	-6	14%	-2	19	8.2
CCCCN(CC(=O)NCc1ccc(F)cc1)C(=O)c1ccco1	0	3%	-1	.	-0.5
CCn1c(SCC(=O)N2CCCc3ccccc32)nnc1-c1c[nH]c2ccccc12	-8	6%	8	-16	-0.6
COc1ccc(CNS(=O)(=O)c2ccc(Br)s2)cc1	0	.	.	.	1.6

An excerpt from the list above:
SMILES	Mtb bLac sens	Mtb growth	Arbovirus inh	YopH PTP inh	RecA intein inh	others
CCCCN(CC(=O)NCc1ccc(F)cc1)C(=O)c1ccco1	0	3%	-1	.	-0.5
CCn1c(SCC(=O)N2CCCc3ccccc32)nnc1-c1c[nH]c2ccccc12	-8	6%	8	-16	-0.6
COc1ccc(CNS(=O)(=O)c2ccc(Br)s2)cc1	0	.	.	.	1.6

The list continues:
SMILES	Mtb bLac sens	Mtb growth	Arbovirus inh	YopH PTP inh	RecA intein inh	others
CCS(=O)(=O)n1nc(-c2ccc(OC)cc2)nc1SC	-8	-4%	4	0	1.0
CCCOc1cccc(C(=O)NC(=S)Nc2cccc(C(F)(F)F)c2)c1	14	42%	11	-28	2.1
O=C(O)Cn1cc(/C=C2\C(=O)NC(=O)N(c3ccc(F)cc3)C2=O)c2ccccc21	-1	.	.	.	5.6
COc1cccc(CC2(CO)CCCN(Cc3cn[nH]c3-c3ccc(F)cc3)C2)c1 (stereo not given)	-2	5%	0	.	2.4
O=S(=O)(c1ccc(F)cc1)N1CCCN(c2nccc(C(F)(F)F)n2)CC1	-8	1%	.	.	-0.9
Cn1cccc1/C=N/n1c(-c2ccc(C(C)(C)C)cc2)n[nH]c1=S	15	13%	1	-32	5.6
COc1cc(C(=O)c2cocc2C(=O)c2ccc3c(c2)OCO3)cc(OC)c1OC	2	-12%	.	.	-0.6
CC(C)c1nnc(NC(=O)COc2ccc3ccccc3c2)s1	-8	.	.	.	-0.5
Cc1cc(Oc2cnn(C(C)(C)C)c(=O)c2Cl)cc(C(C)C)c1	4	2%	-29	2	4.4
O=C1[C@H]2[C@@H](C(=O)N1c1cc(Cl)cc(Cl)c1)[C@]1(C(=O)Nc3ccccc31)N1CCC[C@@H]21	20	-2%	11	-2	4.9
CC(=O)N1N=C(c2ccc(Br)cc2)OC1(C)CC(=O)Nc1ccccc1 (stereo not given)	6	11%	14	-12	4.9
CCOC(=O)NN1C(=O)c2ccccc2NC1c1ccc(N(C)C)cc1 (stereo not given)	4	-2%	-7	-7	4.6
COc1ccc(OC)c(-c2cc(C(=O)NCc3cccs3)no2)c1	2	2%	0	-24	1.7
O=C(CSc1ccc2ccccc2n1)N/N=C/c1ccccc1O	7	.	.	.	-1.5
N#Cc1c(N2CCOCC2)nc(-c2ccco2)c2c1CCCC2	3	6%	-3	-26	-2.9
O=C(C1CCN(c2nnc(-n3cccc3)s2)CC1)N1CCN(c2cccc(C(F)(F)F)c2)CC1	100	0.26µM*	-6	-44	3.3
COC(=O)N(C)c1ccc(C(O)(C(=O)OC)C(F)(F)F)cc1 (stereo not given)	-1	1%	9	-12	-0.2
CCOc1ccccc1NC(=O)Cn1nnc(C(=O)NCc2cccs2)c1N	4	.	.	.	-0.9
Cc1cc(=O)nc2c3ccccc3n(CC(=O)NCCCN3CCOCC3)n12	-9	.	.	.	3.2
CC1(C)Cc2noc(N)c2C(C)(C)N1OC(=O)c1ccco1	-2	-2%	1	-29	.
CCOC(=O)c1nn(-c2ccccc2C)c2nc(-c3ccc(C)cc3)c(C#N)c(=O)n12	6	2%	3	-14	-0.8
Cc1ccc(C(=O)c2ccccc2C(=O)OCC(=O)NC(C)(C)C)cc1	-5	9%	11	.	-3.4
Cn1cccc1CNC(=S)Nc1cc(F)cc(F)c1	-7	-3%	5	.	-5.7
COc1ccc(NC(=O)c2cc(-c3ccc(C)o3)nc3ccccc23)cc1	0	.	.	.	0.4
COC(=O)c1ccc(NC(=O)C2CCN(S(C)(=O)=O)CC2)cc1	-7	4%	3	-60	2.4
CN1CCc2c(sc(NC(=O)c3ccc([N+](=O)[O-])o3)c2C(N)=O)C1	98	.	.	.	-24
